# Bioassay records: PubChem BioAssay, National Center for Advancing Translational Sciences (NCATS)
# TRPML1 blocker = inhibitors of human TRPML1 channel | Q9GZU1 | TRPML1-inducible cells, Ca2+ dye fluorescence, FDSS; stronger effect = lower value; inhibition of EC80 agonist-evoked calcium signal | activity change, negative = inhibition, % (concentration not given with the values) | 0.02% of 390,000 active | AID 624415; in the data active means activity change below about -50%; inconclusive means about -30% to -50%; inactive means above about -30%;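 also: stimulus is agonist 54-4 at its EC80 concentration; % is scaled to controls: 0 for no effect and ±100 for the full control effect; compound concentration not given in the record; the text of the record puts the active cut at -80%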
# Target sequence (Q9GZU1 whole entry, looked up): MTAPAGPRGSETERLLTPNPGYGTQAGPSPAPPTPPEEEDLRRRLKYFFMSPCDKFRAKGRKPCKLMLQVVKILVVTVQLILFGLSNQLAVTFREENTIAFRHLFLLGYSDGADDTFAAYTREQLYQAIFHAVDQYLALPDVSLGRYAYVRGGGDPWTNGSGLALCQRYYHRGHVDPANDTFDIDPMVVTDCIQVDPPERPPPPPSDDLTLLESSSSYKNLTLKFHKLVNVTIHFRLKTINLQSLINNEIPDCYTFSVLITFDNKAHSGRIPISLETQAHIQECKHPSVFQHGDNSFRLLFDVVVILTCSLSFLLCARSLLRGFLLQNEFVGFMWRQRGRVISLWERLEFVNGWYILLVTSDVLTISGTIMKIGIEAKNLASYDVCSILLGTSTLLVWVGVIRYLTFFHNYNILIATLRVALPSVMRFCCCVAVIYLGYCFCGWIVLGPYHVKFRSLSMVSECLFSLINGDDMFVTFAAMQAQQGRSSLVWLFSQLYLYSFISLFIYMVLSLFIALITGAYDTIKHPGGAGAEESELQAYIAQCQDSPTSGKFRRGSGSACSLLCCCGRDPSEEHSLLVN
#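 Calcium fluorescence in TRPML1-DL cells induced overnight with Tet: a 110 s read after compound pin addition, then a 110 s antagonist read after challenge with 54-4 at 4 uM final (EC80).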
# ClpP mod = qHTS Assay for Activators of ClpP | ATP-dependent Clp protease proteolytic subunit (Bacillus subtilis (strain 168)), P80244 | purified B. subtilis ClpP, FRET peptide cleavage, 20 min | Potency, µM (doses to about 57.5 µM), inactives show top-dose activity change, negative = active | 1.9% of 340,000 active | AID 651965, 2013; active = well fitted falling curve with a large enough effect; inconclusive = small, poorly fitted or top-dose-only effect; inactive = no such curve, though single readings can be large or run the other way; also: potency is read from the fitted curve at half-maximal effect; the source files actives as falling curves though it sought activators and does not explain the sign; nearly all actives have a fitted effect of over 65% in size; many hits overshoot -100%
# Target sequence (P80244 whole entry, looked up): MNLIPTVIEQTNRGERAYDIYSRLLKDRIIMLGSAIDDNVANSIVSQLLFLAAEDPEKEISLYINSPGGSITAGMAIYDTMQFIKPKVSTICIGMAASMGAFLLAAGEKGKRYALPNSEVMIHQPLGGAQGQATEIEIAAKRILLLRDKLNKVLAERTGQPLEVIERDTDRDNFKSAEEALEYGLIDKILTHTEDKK
#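 Buffer: 100 mM Tris/HCl pH8, 100 mM KCl, 0.05% low protease BSA, 2.5% glycerol, 0.01% Tween-20. ClpP 10 microg/mL final; 20 min RT; delta FRET normalized to ADEP and DMSO controls.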
# Starred values were filed as active, the others as inactive; ? = inconclusive. This is a subset. The share of hits here may be higher or lower than overall.
Structure	TRPML1 blocker	ClpP mod
CN1c2ccc(Cl)cc2-c2nc(SCC(=O)Nc3cc(F)ccc3F)ncc2S1(=O)=O	-11	4.1%
Cc1oc(-c2ccc(Cl)cc2)nc1CS(=O)CC(=O)NCCc1ccccc1 (stereo not drawn)	-14	-18%
Cc1cc(C)cc(Cn2c3ccc(NC(=O)NCCc4cccs4)cc3c(=O)n2C)c1	-4	4.2%
CCOc1ccc(Nc2nc(Nc3ccc(OCC)cc3)nc(N3CCOCC3)n2)cc1	0	-26%
O=S(=O)(Nc1ccc(-c2ccc(N3CCCC3)nn2)cc1)c1cccc(C(F)(F)F)c1	-23	-2.7%
COc1cccc(-c2nc(SCC(=O)NCc3ccco3)c3c(=O)n(C)c(=O)n(C)c3n2)c1	-18	-0.4%
COc1ccccc1NC(=O)c1cc2c(-c3ccccc3)nn(-c3ccccc3)c2s1	7	4.2%
O=C(NCc1ccccc1Cl)c1ccc2c(c1)NC(=O)C(CS(=O)(=O)Cc1ccc(F)cc1Cl)N2 (stereo not drawn)	0	4.4%
COc1cc(C2c3c(oc4ccccc4c3=O)C(=O)N2Cc2ccc(C)cc2)ccc1O (stereo not drawn)	-7	0.2%
Cc1cccc(Cn2cc(S(=O)(=O)c3ccc(Cl)cc3)c(=O)c3cc4c(cc32)OCO4)c1	23	-2.9%
O=C(CN1CCCN(Cc2ccccc2Cl)S1(=O)=O)NCc1ccccc1	-14	0.4%
COc1cc(OC)cc(N2C(=O)CSC23C(=O)Nc2ccccc23)c1 (stereo not drawn)	-16	0.3%
Cc1ccc(Cl)cc1N1CCN(C(=O)CCCCCn2c(=O)[nH]c3ccccc3c2=O)CC1	-5	-18%
O=C(CNC(=O)c1ccc(Cl)cc1)OCc1cc(=O)n2nc(C3CCCCC3)sc2n1	-13	-3.9%
COc1cccc(N2CCN(C(=O)C3Cc4ccccc4N3C(C)=O)CC2)c1 (stereo not drawn)	13	-1.9%
O=C(NC1CC(=O)N(c2ccccc2)C1)c1ccc(S(=O)(=O)N2CCCCC2)cc1 (stereo not drawn)	-7	-0.2%
CCOCCOC(=O)c1ccc(NC(=O)/C=C/c2ccc(OC)c(OC)c2)cc1	7	3.7%
CCCn1c(=O)sc2cc(NC(=O)c3ccc(OC)c(Br)c3)ccc21	29	-28%
COc1cccc(-c2noc(-c3cc(C(C)C)[nH]n3)n2)c1OC	1	1.1%
COc1ccc(-c2cc(C(=O)Nc3c(Cl)cccc3Cl)no2)cc1OC	23	-30%
COc1ccc(CNC(=O)C2CCCN(C(=O)c3cnn(-c4ccc(F)cc4)c3-n3cccc3)C2)cc1 (stereo not drawn)	-24	-1.1%
CCOc1ccccc1C(=O)NCc1nc2cccnc2n1Cc1ccc(C)cc1	24	-1.4%
COc1ccc(C2NC(=O)N(C)C3=C2C(=O)N(c2cccc(C(=O)O)c2)C3)cc1 (stereo not drawn)	17	?
Cc1ccc(CN(C(=O)COc2ccc(Cl)cc2)c2ccccn2)o1	13	3.0%
COc1cc(CCC(=O)NCc2ccc3c(c2)CCN3C(=O)c2cccc(C)c2)cc(OC)c1OC	-3	-2.9%
Cc1cc(C)c(S(=O)(=O)NCCc2csc3nc(-c4ccc(Cl)cc4)nn23)c(C)c1	-10	-3.2%
N#C/C(=C\c1ccc(F)cc1)C(=O)NCC1CCCO1 (stereo not drawn)	-1	0.5%
COc1ccc(-c2csc(C(NC(C)=O)c3ccc(F)c(F)c3)n2)cn1 (stereo not drawn)	-9	0.3%
COc1ccc(-c2cc(C(=O)NCCc3ccc(OC)c(OC)c3)c3ccccc3n2)cc1	-3	4.0%
COc1ccc(CNC(=O)CCC(=O)N2CCSc3ccccc32)cc1	7	2.0%

# An excerpt from above in order of the TRPML1 blocker value, largest number first.
Structure | TRPML1 blocker
CCOc1ccccc1C(=O)NCc1nc2cccnc2n1Cc1ccc(C)cc1 | 24
COc1cc(CCC(=O)NCc2ccc3c(c2)CCN3C(=O)c2cccc(C)c2)cc(OC)c1OC | -3
COc1cc(OC)cc(N2C(=O)CSC23C(=O)Nc2ccccc23)c1 (stereo not drawn) | -16

# (list continues)
Structure	TRPML1 blocker	ClpP mod
CCOC(=O)c1ccc(N2C(=O)c3[nH]nc(-c4ccc(OCC)cc4)c3C2c2ccc(OC)cc2OC)cc1 (stereo not drawn)	3	?
O=C(CSc1nc(-c2cccc(F)c2)[nH]c1-c1ccccc1)Nc1ccc2c(c1)OCCO2	-16	-22%
C(=C\c1ccccc1)/CN1CCN(C(c2cc3ccccc3o2)c2nnnn2-c2ccc3c(c2)OCCO3)CC1 (stereo not drawn)	2	-0.9%
COc1ccc(-c2cc(C)no2)cc1S(=O)(=O)NCc1ccco1	39	-7.6%
O=C(Cn1ncc2c3ccccc3n(Cc3ccc(F)cc3)c2c1=O)NCCC1=CCCCC1	-8	-1.3%
CC(CNC(=O)c1nnc(Cc2cccc(F)c2)o1)c1ccccc1 (stereo not drawn)	-3	0.0%
CC(=O)c1ccc(NC(=O)c2ccc(-c3ccc(Cl)cc3)o2)cc1	18	4.5%
O=C(Nc1cccc2ccccc12)c1csc(COCCO)n1	11	-0.2%
Cc1ccc(NC(=O)CN(C)S(=O)(=O)c2cnc[nH]2)cc1	7	0.4%
CC(=O)N1CCc2c(sc3c2c(=O)n(CCc2ccccc2)c(=O)n3Cc2ccc(Cl)cc2)C1	58	-7.3%
Cc1ccc(S(=O)Cc2nc(-c3ccc(C(=O)NC(C)c4ccccc4)cc3)oc2C)cc1 (stereo not drawn)	-3	-6.6%
COc1ccccc1N1CCN(C(=O)Cn2c(=O)n3nc(-c4cccc(F)c4)nc3c3ccccc32)CC1	-3	-2.2%
CCN(C(=O)Cn1nnc2sc3c(c2c1=O)CCC(C(C)(C)C)C3)c1cccc(C)c1 (stereo not drawn)	3	1.6%
CC(C)CNC(=O)C1(C)CCCCCN1Cc1ccccc1-c1ccccc1 (stereo not drawn)	12	-0.1%
CN(Cc1ccccc1)C(=O)c1nc(-c2ccc(Cl)cc2)n2c1CCCCC2	6	-1.9%
Cc1ccc(CN2CCSc3ccc(C(=O)Nc4ccc(F)cc4F)cc32)cc1	9	4.1%
Cc1ccc(CCNC(=O)c2cccc(Nc3nc4ccccc4nc3-n3nc(C)cc3C)c2)cc1	-6	-1.3%
COc1cccc(NC(=O)N(Cc2c[nH]c3ccccc23)C2CCCCC2)c1	12	-3.0%
CCCCN(C)CCNC(=O)c1c(C)oc2ncnc(N3CCOCC3)c12	1	-0.7%
COCCNC(=O)C1CCCN(C(=O)c2csc3ccccc23)CC1 (stereo not drawn)	80	0.5%
COc1ccc(-n2nnnc2C2CCN(S(=O)(=O)c3ccc(C(C)(C)C)cc3)CC2)cc1	-4	-1.8%
CCc1ccc(-n2nc3cc(C)c(NC(=O)c4cccc5ccccc45)cc3n2)cc1	-11	-9.7%
CCOc1ccccc1CNC(=O)c1ccc(CS(=O)Cc2cccc(Cl)c2)o1 (stereo not drawn)	-1	2.1%
CC(=O)c1cc(-c2ccccc2)n(CCC(=O)NCCc2ccccc2)c1C	-30	1.2%
O=C(c1ccc2c(c1)N(Cc1ccccc1)C(=O)c1ccccc1S2(=O)=O)N1CCOCC1	-4	1.0%
CCOc1ccc(NC(=O)Cn2cc(C(=O)c3ccc(CC)cc3)c(=O)c3ccc(C)nc32)cc1	1	-0.7%
COc1ccc(Nc2cc(C(=O)NC3CCC(C)CC3)c3ccccc3n2)cc1OC (stereo not drawn)	-8	-3.5%
COc1ccc(OC)c(CNC(=O)c2cc3cc4ccc(OC)cc4nc3o2)c1	13	-8.5%
COc1ccc(Cl)cc1NC(=O)Cn1c(=O)c(-c2ccccc2NC(C)=O)nc2ccccc21	26	1.6%
Cc1ccc(C)c(NC(=O)CSc2nc(=O)n(CCN(C)C)c3c2CCC3)c1	-27	0.5%
CC(C)(C)C(=O)Cn1c(=O)n(-c2ccc(Cl)cc2)c(=O)c2c3c(sc21)CCCC3	-6	-1.0%
CC(=O)c1ccc(NC(=O)c2ccc(CN3C(=O)CCn4nc(C)cc43)cc2)cc1	13	-0.3%
COc1ccc(CCNC(=O)C(=O)NCC(c2cccs2)S(=O)(=O)c2ccccc2)cc1 (stereo not drawn)	62	-2.5%
CCOc1ccc(-c2csc3ncnc(Nc4cccc(O)c4)c23)cc1	17	-15%
Cc1ccc(NC(c2nnc(-c3ccccc3)o2)c2ccccc2F)c(Cl)c1 (stereo not drawn)	-20	-3.6%
CCCCCn1c(=O)[nH]c2cc(C(=O)Nc3ccc(OC)c(OC)c3)ccc2c1=O	32	-1.9%
Cc1cc2c(cc3c(SCC(=O)Nc4cccc(Cl)c4C)nnc(C)n32)o1	-7	-1.7%
O=C(Cn1cc(S(=O)(=O)Cc2cccc(Cl)c2)c2ccccc21)Nc1ccccc1Cl	-1	0.1%
COc1ccc(S(=O)(=O)N2Cc3ccccc3CC2C(=O)Nc2ccc(C)cc2C)cc1OC (stereo not drawn)	12	2.3%
Cc1ccc(S(=O)(=O)N2CCCc3cc(NS(=O)(=O)c4cc(C)ccc4C)ccc32)cc1	66	-2.6%
Cc1ccc(NC(=O)CSc2nc3c(c(=O)[nH]2)CCC3)cc1Cl	-7	1.0%
Cc1cccc(OCC(=O)Nc2c(C)ccc3nsnc23)c1C	9	1.5%
CC1(C(=O)NS(=O)(=O)Cc2ccccc2C(F)(F)F)CCN1C(=O)c1cccc(F)c1 (stereo not drawn)	-18	1.1%
CCOc1ccc2nc(N3CCN(C(=O)c4ccc5c(c4)CCCC5)CC3)sc2c1	-6	3.0%
Cc1cc(C)c(/C=C/c2onc(C)c2S(=O)(=O)N2CCC(C(=O)N(C)Cc3ccccc3)CC2)c(C)c1	14	-5.4%
Cc1cccc(N2C(=O)CSC23C(=O)N(Cc2cccc(F)c2)c2ccccc23)c1 (stereo not drawn)	-10	-0.3%
Cc1ccccc1NC(=O)CSc1nc2ccc(NC(=O)c3ccccc3)cc2s1	-20	49%
O=C(NCC(c1ccco1)S(=O)(=O)c1cccs1)c1ccccc1 (stereo not drawn)	-13	-1.3%
CC(C)c1ccc(NC(=O)[C@H]2O[C@@H]3OC(C)(C)O[C@@H]3[C@H]3OC(C)(C)O[C@H]32)cc1	3	1.4%
CCc1ccc(NC(=O)c2nnn(Cc3cccc(C(F)(F)F)c3)c2N)cc1	3	-15%
Cc1ccc(CN2C(=O)c3ccccc3Sc3ccc(C(=O)N4CCOCC4)cc32)cc1	30	-2.4%
O=C(CSc1ccc2nc(-c3ccccc3)cn2n1)Nc1cccc(F)c1	4	?
COc1ccc(CNC(=O)C(CCSC)NS(=O)(=O)c2ccc3c(c2)oc(=O)n3C)cc1 (stereo not drawn)	6	1.3%
COc1ccc(OC)c(NC(=O)CCc2c(C)nc3c(-c4ccccc4)c(C)nn3c2C)c1	-5	0.6%
CCOc1cccc(CC(=O)NCc2ccc3c(c2)CCN3C(C)=O)c1OCC	6	-0.5%
Cc1ccc(-c2nc3ccc(Br)cn3c2Cc2cccc(F)c2)cc1	67	-7.6%
O=C(Cc1ccc(Cl)cc1)NCC(c1cccs1)S(=O)(=O)c1ccc(F)cc1 (stereo not drawn)	28	0.1%
O=S(=O)(NCc1ccccc1Cl)c1ccc(N2CCCCS2(=O)=O)cc1	1	-1.6%
COC(=O)c1cc(NC(=O)c2sc3ccccc3c2Cl)cc(C(=O)OC)c1	6	0.8%
CCCOC(=O)c1ccc(NC(=O)Cc2csc(C)n2)cc1	-7	1.2%

# Next records.
Structure	TRPML1 blocker	ClpP mod
COc1ccc(-c2noc(CSc3nnc(-c4ccncc4)n3-c3ccc(C)c(C)c3)n2)cc1	61	1.0%
COc1ccc(OC)c(NC(=O)CSc2ccc(-c3cccs3)nn2)c1	31	1.2%
CCCN1Cc2cccc(C(=O)Nc3cc(C)cc(C)c3)c2C1=O	-8	-0.3%
COc1ccc(C)cc1NCc1nnc2n1CCCCC2	3	-3.0%
CCN1C(=O)CC(C(=O)Nc2ccc(OC)cc2)SC1=Nc1ccc(C)c(C)c1 (stereo not drawn)	-26	2.3%
O=c1oc2c(CN3CCCC3)c(O)ccc2cc1-c1ccccc1	-7	3.9%
COCc1cc(C)nc2sc3c(c12)NC(c1ccc(NC(C)=O)cc1)N(c1ccc(C)cc1)C3=O (stereo not drawn)	2	-3.1%

# In another format: results already given.
# Fields: TRPML1 blocker | ClpP mod
COc1ccc(OC)c(NC(=O)CSc2ccc(-c3cccs3)nn2)c1
  31 | 1.2%
COc1ccc(C)cc1NCc1nnc2n1CCCCC2
  3 | -3.0%

# Copied from the list.
# Result of O=c1oc2c(CN3CCCC3)c(O)ccc2cc1-c1ccccc1 in ClpP mod: 3.9%
# Result of COCc1cc(C)nc2sc3c(c12)NC(c1ccc(NC(C)=O)cc1)N(c1ccc(C)cc1)C3=O (stereo not drawn) in TRPML1 blocker: 2
# Result of COc1ccc(C)cc1NCc1nnc2n1CCCCC2 in TRPML1 blocker: 3
# Result of COc1ccc(-c2noc(CSc3nnc(-c4ccncc4)n3-c3ccc(C)c(C)c3)n2)cc1 in TRPML1 blocker: 61
# Result of CCCN1Cc2cccc(C(=O)Nc3cc(C)cc(C)c3)c2C1=O in TRPML1 blocker: -8
